# Compound activity (PubChem)
# FGF22 binding = binders of recombinant human FGF22 by thermal shift; Q9HCT0; SYPRO orange fluorescence; percent of sucrose octasulfate shift, DMSO zero; calls only at 9.99 µM; 1.5% of 340,000 active; AID 651658;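 active = melting point raised past a set limit in the mean and every replicate; three in four hits are not shown here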
# Target sequence (Q9HCT0 whole entry, looked up): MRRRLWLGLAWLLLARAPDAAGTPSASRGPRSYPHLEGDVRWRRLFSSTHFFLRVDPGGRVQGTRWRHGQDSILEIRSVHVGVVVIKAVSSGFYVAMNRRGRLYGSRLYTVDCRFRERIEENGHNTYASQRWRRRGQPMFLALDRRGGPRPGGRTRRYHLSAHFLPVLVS
# AF4-AF9 inh = MLL-AF4/AF9 protein interaction inhibition; inhibition, % at 10 µM; P42568; AlphaScreen, biotin-AF4 peptide binding to FLAG-AF9; 0.47% of 350,000 active; AID 651704;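 active = every replicate reaching a set inhibition limit, whatever the replicate mean, cut at about 25% in these data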;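 also: 0% = plate neutral control median and 100% = total signal loss; the record names both 10 and 1 µM as test concentration; the first replicate is given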
# Target sequence (P42568 whole entry, looked up): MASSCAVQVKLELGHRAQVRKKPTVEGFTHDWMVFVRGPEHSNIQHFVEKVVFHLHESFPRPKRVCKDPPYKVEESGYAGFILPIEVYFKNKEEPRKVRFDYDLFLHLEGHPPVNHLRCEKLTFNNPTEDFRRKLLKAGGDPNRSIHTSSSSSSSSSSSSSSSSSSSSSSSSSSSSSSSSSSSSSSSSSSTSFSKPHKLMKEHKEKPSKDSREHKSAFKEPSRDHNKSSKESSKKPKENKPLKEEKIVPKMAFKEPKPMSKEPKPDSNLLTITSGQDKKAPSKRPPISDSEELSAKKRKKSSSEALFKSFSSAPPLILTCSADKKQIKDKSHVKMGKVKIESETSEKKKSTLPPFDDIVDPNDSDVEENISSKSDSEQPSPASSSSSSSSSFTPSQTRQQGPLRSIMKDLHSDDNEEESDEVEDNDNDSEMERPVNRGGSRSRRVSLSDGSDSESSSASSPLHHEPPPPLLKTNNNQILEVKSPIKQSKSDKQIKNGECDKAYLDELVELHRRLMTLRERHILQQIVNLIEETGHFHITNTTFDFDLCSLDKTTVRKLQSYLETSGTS
# Ecoli rRNA inh = inhibitors of bacterial rRNA selective over humanized ribosomes. E. coli WT GFP vs humanized-ribosome RFP mutants, fluorescence, 24 h; stronger effect = lower value; DMSO median 0, no signal -100. GFP signal change (wild-type ribosome), % (concentration not given with the values). 1.6% of 350,000 active. AID 720706;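 active = significant combined selectivity score with lowered wild-type GFP, culture density cut under 30%, mutant RFP and density less affected; inactive = any of these conditions unmet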; also: one replicate is shown; some compounds called inactive have numbers as strong as hits
# Ecoli rRNA inh OD600 = second read-out of Ecoli rRNA inh, no call of its own (marks repeat the call); OD600 change, %; measured here: OD600 growth;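 optical density of the mix in the first replicate; 0 = DMSO median and -100 = no signal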
# Ecoli rRNA inh RFP = further read-out of Ecoli rRNA inh, marked with its call; RFP signal change, %; measured here: RFP humanized mutant strains;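 first replicate; 0 = DMSO median and -100 = no signal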
# Numbers without * were called inactive; i = inactive.
SMILES,FGF22 binding,AF4-AF9 inh,Ecoli rRNA inh,Ecoli rRNA inh OD600,Ecoli rRNA inh RFP
COc1ccc(CN(C)C[C@@H]2Oc3c(NS(=O)(=O)c4ccc(F)cc4)cccc3C(=O)N([C@H](C)CO)C[C@@H]2C)cc1,i,-1.2,-1,1,-2.3
O=C(NCc1ccccc1)[C@@H]1CCCN1C(=O)[C@H]1CCCN1C(=O)c1cccc(Cl)c1,i,-0.7,11,16,3.5
C[C@@H]1CCCCO[C@H](CN(C)S(C)(=O)=O)[C@@H](C)CN([C@@H](C)CO)C(=O)c2cc(NC(=O)Nc3cccc4ccccc34)ccc2O1,i,6.7,0,-7,0.1
O=C(Nc1ccc2c(c1)OCO2)N[C@H]1CC[C@H](CCNC(=O)C2CCOCC2)O[C@@H]1CO,i,1.3,-3,0,-4.4
O=C(CCN1CCCCC1)NCC[C@H]1CC[C@H](NC(=O)C2CCOCC2)[C@H](CO)O1,i,-1.7,0,-2,-0.1
O=C(Nc1cccc(Cl)c1)N[C@H]1CC[C@@H](CCNC(=O)C2CCC2)O[C@H]1CO,i,-12,0,-2,0.2
CO[C@H]1CN(C)C(=O)c2ccc(NC(C)=O)cc2OC[C@H](C)N(CCC(F)(F)F)C[C@@H]1C,i,-5.7,-6,-7,1.7
CN(C)c1ncnc2c1ncn2CCn1cnc2c(N(C)C)ncnc21,i,-0.8,1,4,-0.1
COc1ccc(C#Cc2cnc3c(c2)C(=O)N([C@H](C)CO)C[C@H](C)[C@H](CN(C)C(=O)c2ccccc2F)O3)cc1,i,-1.1,-8,-42,21
C[C@@H]1CN([C@H](C)CO)C(=O)c2cc(-c3cccc(C#N)c3)cnc2O[C@@H]1CN(C)Cc1cncnc1,i,-0.4,8,5,-0.4
O=C(C[C@H]1CC[C@@H]2[C@H](COC[C@H](O)CN2Cc2ccc(Oc3ccccc3)cc2)O1)Nc1nccs1,i,6.0,-53,-74,-5.1
C/C=C/c1ccc2c(c1)O[C@@H](CN(C)C(=O)c1ccccc1)[C@@H](C)CN([C@H](C)CO)S2(=O)=O,i,1.4,-5,-4,0.2
C[C@H](CO)N1C[C@H](C)[C@H](CN(C)C(=O)Nc2cccc(C(F)(F)F)c2)OCc2ccccc2-c2c(n(C)c3ccccc23)C1=O,i,2.1,0,-2,2.5
C[C@@H]1CN([C@@H](C)CO)C(=O)c2cccc(NC(=O)Nc3ccc(C(F)(F)F)cc3)c2O[C@H]1CN(C)S(=O)(=O)c1cn(C)cn1,i,-3.4,-1,5,1.5
CCOC(=O)C1(C)CCCCCN1C(=O)c1ccc(OC)cc1 (stereo not given),i,-5.3,0,6,-2.4
COc1ccc2cc(C[C@@H]3CC[C@@H](CNC(N)=O)O3)ccc2c1,i,-5.3,-16,-9,1.7
CO[C@@H]1CN(C)C(=O)c2cc(NC(=O)Nc3ccc(C(F)(F)F)cc3)ccc2OC[C@H](C)NC[C@@H]1C,i,6.6,-27,-55,37
C[C@@H]1CCCCO[C@H](CN(C)Cc2ccccc2)[C@@H](C)CN([C@@H](C)CO)C(=O)c2cc(NS(=O)(=O)c3ccccc3)ccc2O1,i,-1.7,1,-3,3.7
O=C(Nc1cccc(Cl)c1)N1C[C@@H]2[C@H](c3ccccc31)[C@H](CO)N2Cc1ccncc1,i,1.7,-19*,-14*,2.2*
COc1ccc2c3c([nH]c2c1)[C@H](CO)N(Cc1nccs1)CC31CN(C(=O)C2CCC2)C1,i,4.6,0,5,2.1
C[C@H]1CN([C@@H](C)CO)C(=O)c2cccc(NC(=O)Nc3ccc(C(F)(F)F)cc3)c2O[C@H]1CN(C)C(=O)Nc1ccccc1,i,3.8,-5,-6,1.1
NCc1csc(NC(=O)Nc2cccc(Cl)c2)n1,i,7.6,4,11,-1.9
CO[C@H]1CN(C)C(=O)c2cc(NC(=O)Nc3cccc(F)c3)ccc2OC[C@@H](C)N(C(=O)Nc2c(C)noc2C)C[C@H]1C,i,2.7,0,-3,4.5
CC(C)(O)C#Cc1ccc([C@@H]2[C@H](CO)N3CCCCN(C(=O)c4cccnc4)C[C@@H]23)cc1,i,-6.5,1,2,-0.3
CO[C@@H]1CN(C)C(=O)c2ccc(NC(=O)NC(C)C)cc2OC[C@@H](C)N(C(=O)CC2CC2)C[C@H]1C,i,-0.9,0,2,-0.2
Cc1noc(C)c1NC(=O)N[C@@H]1C=C[C@H](CC(=O)N2CCN(C)CC2)O[C@H]1CO,i,-0.8,3,6,-3.7
C[C@@H]1CN([C@H](C)CO)C(=O)c2cc(NC(=O)NC3CCCCC3)ccc2O[C@@H](C)CCCCO[C@@H]1CN(C)C(=O)Nc1ccc(F)cc1,i,-2.7,-2,-2,-0.1
CCC(=O)N1C[C@@H](O)COC[C@@H]2O[C@@H](CC(=O)NCC3CCCCC3)CC[C@H]21,i,0.8,3,-1,-0.5
CCOC(=O)[C@]12CCCC=C1N(Cc1ccco1)C(=O)[C@H](CC(=O)N1CCN(C(=O)C3CC3)CC1)C2,i,-1.9,12,13,2.2
CC(=O)N(C)C[C@H]1[C@H](c2ccccc2)[C@@H](CO)N1C(=O)C1CC1,i,-2.6,-2,2,-1.2
CCCNC(=O)N1CCC2(CC1)CN(C(C)=O)[C@H](CO)c1[nH]c3cc(OC)ccc3c12,i,-1.7,4,14,-1.4
CCCC#Cc1ccc2c(c1)O[C@@H](CN(C)C(=O)c1ccccn1)[C@@H](C)CN([C@@H](C)CO)S2(=O)=O,i,0.4,0,4,-2.1
C[C@@H]1CN([C@H](C)CO)C(=O)Cc2cc(NC(=O)CCN3CCOCC3)ccc2O[C@H]1CN(C)S(=O)(=O)c1ccccc1,i,0.1,-1,-4,-2.9
Cc1ccc(S(=O)(=O)N(C)C[C@@H]2OCCCC[C@H](C)Oc3ccc(NC(=O)Nc4ccc(C(F)(F)F)cc4)cc3C(=O)N([C@H](C)CO)C[C@@H]2C)cc1,i,-6.4,-4,0,-6.2
C/C=C/c1ccc2c(c1)O[C@@H](CN(C)C(=O)Cc1ccccc1)[C@H](C)CN([C@@H](C)CO)S2(=O)=O,i,-1.6,-8,-10,-3.2
CS(=O)(=O)N1[C@H](CO)[C@@H](c2ccc(C#Cc3cccc(F)c3)cc2)[C@@H]1C#N,i,-6.1,-13,-53,13
Nc1sc2c(c1C(=O)NCCc1ccccc1)CCCC2,i,-0.4,8,4,9.4
O=C(NCc1ccccc1)[C@H]1CCCN1C(=O)[C@H]1CCCN1C(=O)c1ccc(F)cc1F,i,-2.4,6,9,3.0
CO[C@@H]1CN(C)C(=O)c2cc(NC(=O)NC(C)C)ccc2OC[C@@H](C)N(Cc2ccc(-c3ccccn3)cc2)C[C@@H]1C,i,5.2,-3,-9,4.3
CCNC(=O)C1(C)CCCN1C(=O)c1ccc2c(c1)OCO2 (stereo not given),i,-3.6,5,10,-1.3

# Copied from the entries so far for reference:
SMILES,FGF22 binding,AF4-AF9 inh,Ecoli rRNA inh,Ecoli rRNA inh OD600,Ecoli rRNA inh RFP
O=C(NCc1ccccc1)[C@H]1CCCN1C(=O)[C@H]1CCCN1C(=O)c1ccc(F)cc1F,i,-2.4,6,9,3.0
CO[C@@H]1CN(C)C(=O)c2cc(NC(=O)NC(C)C)ccc2OC[C@@H](C)N(Cc2ccc(-c3ccccn3)cc2)C[C@@H]1C,i,5.2,-3,-9,4.3

# More entries follow:
SMILES,FGF22 binding,AF4-AF9 inh,Ecoli rRNA inh,Ecoli rRNA inh OD600,Ecoli rRNA inh RFP
CNC[C@@H]1Oc2ccc(NC(=O)NC3CCCCC3)cc2C(=O)N([C@@H](C)CO)C[C@H]1C,i,-2.9,6,5,1.9
C[C@H](CO)N1C[C@H](C)[C@H](CN(C)S(=O)(=O)c2ccc(Cl)cc2)Oc2c(NC(=O)C3CC3)cccc2C1=O,i,-0.8,-3,-4,2.7
COC(=O)[C@]12CCCCC=C1N(Cc1ccc(Cl)cc1Cl)C(=O)[C@H](CC(=O)NCCCCc1ccccc1)C2,i,-2.5,18,10,4.8
COc1ccc(NC(=O)Nc2ccc3c(c2)C(=O)N([C@H](C)CO)C[C@H](C)[C@H](CN(C)Cc2ccccc2)O3)cc1,i,6.8,-1,6,-2.5
CCCNC(=O)N1CC2(CN(S(=O)(=O)CC)C2)c2c(n(C)c3cc(OC)ccc23)[C@@H]1CO,i,-0.1,-3,-13,0.0
Cc1nc(NC(=O)C(C)(C)C)sc1C(=O)Cn1cc(CCc2ccccc2)nn1,i,2.5,-12,-18,-2.1
Cc1ccccc1S(=O)(=O)N1CCCCN2[C@H](C1)[C@@H](c1ccc(-c3cncnc3)cc1)[C@@H]2CO,i,-5.6,-5,4,4.9
CCNC(=O)Nc1cc(S(=O)(=O)N2CCOCC2)ccc1N1CCCCC1,i,-0.9,3,2,1.2
CCNC(=O)C[C@H]1CC[C@@H]2[C@H](COC[C@@H](O)CN2C(=O)Nc2cccc(OC)c2)O1,i,-0.5,1,-7,-1.5
C[C@H](CO)N1C[C@H](C)[C@H](CN(C)Cc2ccc(Cl)c(Cl)c2)Oc2c(NC(=O)Nc3ccccc3)cccc2C1=O,i,3.7,-2,-17,0.6
Cc1ccccc1NC(=O)Cc1nc(COC(=O)CNC(=O)c2ccc(Cl)cc2Cl)cs1,i,-2.8,6,13,18
COc1ccc(OC(=O)OCc2ccccc2)cc1,i,-2.8,3,-15,1.7
Cc1noc(C)c1S(=O)(=O)Nc1ccc2c(c1)C(=O)N([C@@H](C)CO)C[C@H](C)[C@H](CN(C)CC1CCCCC1)OCCCC[C@@H](C)O2,i,-2.0,4,-10,2.3
COc1ccc(C(=O)CC(Sc2ccccc2N)c2ccc(OC)cc2)cc1 (stereo not given),i,5.4,-15,-19,6.4
CCC(=O)N1C[C@H](C)[C@H](OC)CN(C)C(=O)c2ccc(NC(=O)C3CCCCC3)cc2OC[C@@H]1C,i,2.0,-1,-1,0.2
CN1C(=O)c2cc(NC(=O)C3CC3)ccc2OC[C@H]2O[C@@H](CC(=O)NCCN3CCCC3)CC[C@H]21,i,-0.9,3,4,-1.9
O=S(=O)(c1cccs1)N1CCCCN2[C@H](CO)[C@H](c3ccc(-c4ccccc4)cc3)[C@H]2C1,i,4.9,-54,-48,-2.9
CC(C)CC#Cc1ccc2c(c1)O[C@@H](CN(C)C(=O)CC1CC1)[C@@H](C)CN([C@@H](C)CO)S2(=O)=O,i,1.4,-11,-41,30
O=P(O)(Cc1ccccc1)c1ccccc1,i,1.5,4,6,0.8
COc1ccc(CN(C)C[C@H]2OCCCC[C@@H](C)Oc3ccc(NC(=O)c4ccncc4)cc3C(=O)N([C@@H](C)CO)C[C@H]2C)cc1,i,2.2,-4,-4,-1.3
C[C@@H]1CN([C@H](C)CO)C(=O)c2cc(NC(=O)c3ccncc3)ccc2O[C@@H](C)CCCCO[C@H]1CN(C)Cc1ccccc1,i,-2.5,2,4,-1.0
O=C(c1ccncc1)N1C[C@H]2[C@@H](c3ccccc31)[C@@H](CO)N2C(=O)Nc1ccc(F)cc1,i,-1.7,2,6,0.2
C[C@H](CO)N1C[C@H](C)[C@@H](CN(C)Cc2ccc(O)cc2)OCc2ccccc2-c2c(n(C)c3ccccc23)C1=O,i,5.0,1,0,3.3
Cc1ccc(S(=O)(=O)Nc2ccc3c(c2)C(=O)N([C@@H](C)CO)C[C@@H](C)[C@H](CN(C)C)OCCCC[C@H](C)O3)cc1,i,-3.7,0,-3,-0.1
CNC[C@H]1Oc2c(NC(=O)Nc3c(C)noc3C)cccc2C(=O)N([C@H](C)CO)C[C@H]1C,i,-2.0,1,1,0.4
COCCNC(=O)C[C@H]1CC[C@H]2[C@H](COc3ccc(NC(=O)Cc4ccccc4)cc3C(=O)N2C)O1,i,-1.9,-3,-6,-1.5
O=C(C[C@H]1CC[C@@H]2[C@H](COC[C@H](O)CN2Cc2ccncc2)O1)NCC1CC1,i,-0.5,3,12,-4.7

# Structures from the list above that have a Cl atom, in the order listed:
SMILES,FGF22 binding,AF4-AF9 inh,Ecoli rRNA inh,Ecoli rRNA inh OD600,Ecoli rRNA inh RFP
O=C(NCc1ccccc1)[C@@H]1CCCN1C(=O)[C@H]1CCCN1C(=O)c1cccc(Cl)c1,i,-0.7,11,16,3.5
O=C(Nc1cccc(Cl)c1)N[C@H]1CC[C@@H](CCNC(=O)C2CCC2)O[C@H]1CO,i,-12,0,-2,0.2
O=C(Nc1cccc(Cl)c1)N1C[C@@H]2[C@H](c3ccccc31)[C@H](CO)N2Cc1ccncc1,i,1.7,-19*,-14*,2.2*
NCc1csc(NC(=O)Nc2cccc(Cl)c2)n1,i,7.6,4,11,-1.9
C[C@H](CO)N1C[C@H](C)[C@H](CN(C)S(=O)(=O)c2ccc(Cl)cc2)Oc2c(NC(=O)C3CC3)cccc2C1=O,i,-0.8,-3,-4,2.7
COC(=O)[C@]12CCCCC=C1N(Cc1ccc(Cl)cc1Cl)C(=O)[C@H](CC(=O)NCCCCc1ccccc1)C2,i,-2.5,18,10,4.8
C[C@H](CO)N1C[C@H](C)[C@H](CN(C)Cc2ccc(Cl)c(Cl)c2)Oc2c(NC(=O)Nc3ccccc3)cccc2C1=O,i,3.7,-2,-17,0.6
Cc1ccccc1NC(=O)Cc1nc(COC(=O)CNC(=O)c2ccc(Cl)cc2Cl)cs1,i,-2.8,6,13,18

# The list is partial; rates above refer to the full screens.
